miR-21 FLuc = miR-21 reporter, rising signal; HeLa miR-21 FLuc reporter, luciferase, 48 h; AID 2288; 340,000 tested, under 10 active; Potency, µM (series often up to 38.3 µM), without a hit: at the top dose reporter change, positive = more light; active = well fitted rising curve with a large enough effect; inconclusive = small, poorly fitted or top-dose-only effect; inactive = no such curve, though single readings can be large or run the other way;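 note: % of control where 0% means no effect; miR-21 action dims this reporter so a rising signal means less miR-21 action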
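Using DMEM plus 10% FBS, HeLa miR-21-FLuc cells are incubated with test compounds (final up to about 40uM) for 48 hours; firefly luciferase signal is then imaged following reagent-mediated lysis.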
GLA inh pH 4.5 = blocks human alpha-galactosidase A at pH 4.5; purified enzyme, 4-MU-alpha-Gal fluorescence, pH 4.5; activity change, negative = inhibition, % at 105 µM; 230,000 tested, under 10 active; inconclusive = small, poorly fitted or top-dose-only inhibition, or a rising curve; inactive = flat fitted curve, though single readings scatter; no compound was filed as active;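 note: 0% = full activity with enzyme and -100% = basal without enzyme; dose as in the result columns while the protocol names 77 µM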
Rango complex inh = prevents formation of the Rango-importin beta complex; Q14974; Rango CFP/YFP FRET sensor + importin beta, 45 min; Potency, µM (doses to about 92.2 µM), inactives show top-dose inhibition of complex formation; 0.031% of 340,000 active; active = rising FRET ratio curve, often small or poorly fitted; inconclusive = mostly compound fluorescence or quenching in the first reads; inactive = flat curves in all reads;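 note: potency is the fitted concentration of half-maximal effect; 0% = DMSO wells and 100% = buffer wells lacking importin beta; nearly all actives have a fitted effect of over 15% in size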
Target sequence (Q14974 whole entry, looked up): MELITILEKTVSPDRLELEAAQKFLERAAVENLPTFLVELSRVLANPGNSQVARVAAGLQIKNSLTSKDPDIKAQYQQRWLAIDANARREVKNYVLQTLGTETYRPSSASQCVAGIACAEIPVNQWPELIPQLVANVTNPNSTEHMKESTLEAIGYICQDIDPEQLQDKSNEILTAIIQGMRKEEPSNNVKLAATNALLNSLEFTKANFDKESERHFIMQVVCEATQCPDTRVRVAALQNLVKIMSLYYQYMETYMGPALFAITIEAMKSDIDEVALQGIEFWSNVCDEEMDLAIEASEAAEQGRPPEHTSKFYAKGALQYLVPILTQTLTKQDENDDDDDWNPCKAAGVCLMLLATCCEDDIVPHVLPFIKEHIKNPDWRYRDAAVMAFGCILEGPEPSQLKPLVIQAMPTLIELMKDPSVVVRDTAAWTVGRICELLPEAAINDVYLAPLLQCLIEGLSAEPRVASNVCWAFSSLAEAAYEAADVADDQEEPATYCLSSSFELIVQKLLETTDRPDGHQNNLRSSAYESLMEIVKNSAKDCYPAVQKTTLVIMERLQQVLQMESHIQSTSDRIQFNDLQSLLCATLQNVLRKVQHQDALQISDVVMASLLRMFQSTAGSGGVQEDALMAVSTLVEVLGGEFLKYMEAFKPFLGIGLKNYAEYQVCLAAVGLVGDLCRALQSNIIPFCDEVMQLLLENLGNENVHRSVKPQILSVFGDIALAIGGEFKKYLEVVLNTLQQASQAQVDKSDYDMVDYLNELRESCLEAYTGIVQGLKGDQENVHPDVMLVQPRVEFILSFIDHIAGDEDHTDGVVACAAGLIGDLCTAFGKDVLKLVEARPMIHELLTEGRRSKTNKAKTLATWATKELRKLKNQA
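Inhibition scored from the CFP 486 nm/YFP 530 nm FRET ratio 45 min after adding 0.125 microM importin beta to 50 nM Rango biosensor preincubated 5 min with compound (room temperature, PBS with DTT, Tween-20, BSA). No-importin wells as positive control.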
Rango release inh = inhibition of RanGTP-driven Rango-importin beta dissociation | Biochemical FRET Rango-importin beta, RanGTP-induced dissociation | Potency, µM (doses to about 46.1 µM), for the others: top-dose activity change, negative = inhibition | 0.071% of 340,000 active; active means falling FRET ratio curve, often poorly fitted, with flat reads before Ran was added; inconclusive means other falling curves, or compound fluorescence or quenching; inactive means flat or rising ratio curve;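 note: potency is the fitted concentration of half-maximal effect; % of control where 0% means no effect; nearly all actives have a fitted effect of over 45% in size; -100% = wells without RanGTP and RCC1; the record marks most hits as doubtful in a second field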
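Rango FRET biosensor (snurportin-1 IBB flanked by N-terminal EYFP and C-terminal CFP10) at 0.1 uM, with 0.25 uM importin beta in PBS, 1mM DTT, 0.02% Tween-20, 0.1% BSA. 0.6 uM Ran, 2mM GTP and 0.2 uM RCC1 were then added for 45 min at room temperature. Inhibition read as loss of FRET rise.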
Active calls of the source: *; ? = inconclusive; · = not tested or not shown; & = joins results of further samples. This is a subset, so the mix of outcomes need not match the whole.

miR-21 FLuc	GLA inh pH 4.5	Rango complex inh	Rango release inh	mol
-1%	9	-3.4%	23%	CCCCCCCCCCOC(=O)C[N+](C)(C)CC1CCCCC1O (centres undefined)
·	·	-2.8%	10%	NC(=O)C1CCN(c2ccc(S(=O)(=O)N3CCCCC3)cc2[N+](=O)[O-])CC1
-39%	-5	-2.4%	4%	COc1ccccc1N(Cc1ccccc1)S(=O)(=O)c1cccc(C(=O)Nc2ccc(C(C)=O)cc2)c1
?	0	-1.5%	-7%	C=CCC1(C#N)C(SC)=NC2=C(C(=O)CC(C)(C)C2)C1c1ccc(Br)cc1 (centres undefined)
-14%	-2	?	-5%	CCC(=O)NC(=S)Nc1ccc(NC(=O)COc2ccc(Cl)cc2Cl)cc1
·	·	-4.0%	-6%	NS(=O)(=O)c1cc(C(=O)NNC(=O)c2ccc3c(c2)OCO3)ccc1Cl
-1%	·	8.1%	-10%	CCOC(=O)[C@@H]1[C@H]2COc3ccc(Br)cc3[C@@H]2N2C(=O)N(c3ccc(C)cc3)C(=O)[C@]12C
-4%	2	-0.5%	-5%	O=C(c1ccc2c(c1)C(=O)N(CCCO)C2=O)c1ccc2c(c1)C(=O)N(CCCO)C2=O
2%	·	0.6%	-2%	CCCNC(=S)NNC(=O)c1cc(-c2cccnc2)nc2ccccc12
6%	13	-0.8%	7%	CCCC(C)NC(=O)COc1ccc(S(=O)(=O)c2ccc(OCC(=O)NC(C)CCC)cc2)cc1 (centres undefined)
-5%	13	0.1%	-5%	COC(=O)c1nc(NC(=O)c2ccc(Br)cc2)n[nH]1
-2%	5	-0.2%	0%	Cc1ccc(S(=O)(=O)N2CCOCC2)cc1C(=O)NCc1cccs1
2%	0	2.1%	19%	COc1ccccc1N1CCN(C(=O)c2ccc(C(C)(C)C)cc2)CC1
-6%	·	-2.9%	-5%	Cc1ccc(C(=O)N2CCN(Cc3ccccc3)CC2)o1
7%	2	0.6%	6%	CC1(C(=O)O)CCC(C(=O)Nc2ccc(S(N)(=O)=O)cc2)C1(C)C (centres undefined)
-15%	3	5.9%	-8%	COc1ccc(CC2(CO)CCN(Cc3ccc(NC(C)=O)cc3)CC2)cc1
-6%	2	?	-22%	COC(=O)CSc1nc(C2CC2)cc(C(F)(F)F)c1C#N
-3%	-6	0.4%	-7%	COc1ccc(-c2nc(N)n[nH]2)cc1OC
-55%	-3	-0.6%	-1%	Cc1cc(N/N=C/c2cccc(Br)c2)nc2ccccc12
·	·	-1.7%	2%	COc1ccc(CN(C)C(=O)c2ccc(NC(=O)CC3SC(N4CCCCC4)=NC3=O)cc2)c(OC)c1 (centres undefined)
-57%	-7	-5.0%	6%	Cc1ccccc1C(=O)Oc1ccc(-c2csnn2)cc1
-2%	-5	4.6%	-8%	Cc1ccc(Cl)cc1N1CCN(CC(O)COC(C)C)CC1 (centres undefined)
13%	9	-0.4%	1%	COc1ccccc1N1CCN(C(c2cccs2)C(C)NC(=O)c2cccnc2)CC1 (centres undefined)
·	·	3.6%	-5%	COc1ccc(CC(=O)NNC(=O)c2cc(Cl)ccc2OC)cc1
-10%	9	-0.4%	-10%	C/C(=N\NC(=O)C(N)=O)c1cccc(C(F)(F)F)c1
0%	2	2.1%	-4%	CCCCC(=O)NC(Nc1nc(C2CC2)cs1)(C(=O)OCC)C(F)(F)F (centres undefined)
0%	-6	0.6%	19%	CC(C)(C)N1CC(C(=O)O)CC1=O (centres undefined)
·	·	0.1%	1%	CCCC1OC(c2ccco2)OCC1CC (centres undefined)
0%	3	3.3%	-1%	O=C(NCC1CCCO1)c1ccc2c(=O)n(Cc3ccco3)c(SCC(=O)N3CCCC3)nc2c1 (centres undefined)
-30%	·	-0.9%	-2%	CC(C)CC(=O)N(c1nnc(-c2cccnc2)s1)C1CCCC1
-4%	-2	-1.2%	-17%	O=C(N1CCCCC1)C12CC3CC(C1)CC(C(=O)N1CCCCC1)(C3)C2
-5%	1	-1.3%	5%	CCN(CC)CCOC(=O)c1ccc([N+](=O)[O-])cc1
5%	-3	0.2%	-5%	COc1ccc(C2/C=C\CN(S(=O)(=O)/C=C/c3ccccc3)[C@H](Cc3ccccc3)C(=O)N2Cc2ccc(F)cc2)cc1 (some centres undefined)
-13%	-1	1.4%	21%	COc1ccc(CCNc2oc(-c3ccc(C)cc3)nc2C#N)cc1OC
-10%	0	-4.6%	19%	CN(CC(=O)NCc1cccs1)S(=O)(=O)c1cccc2cccnc12
1%	-21	2.8%	3%	O=C1NC(NS(=O)(=O)c2ccc(Cl)cc2)(C(F)(F)F)C(=O)N1c1ccccc1 (centres undefined)
1%	-14	2.8%	3%	Cn1c(=N)n(CC(O)c2cccs2)c2ccccc21 (centres undefined)
7%	-3	-0.1%	2%	C[C@@H]1CC=C[C@H]2[C@H]1C(=O)N(Cc1ccccc1)[C@H]2c1cccc([N+](=O)[O-])c1
-3%	1	?	-22%	O=C(NCc1ccco1)C1CCN(c2ccc(N3CCOCC3)nn2)CC1
4%	·	-0.2%	5%	CS(=O)(=O)c1ccc(-c2cccc(NC(=O)COc3ccc(Cl)cc3)c2)nn1
1%	7	3.7%	-7%	CC1(C)CC(=O)C(C=NCCN2CCN(C(=O)CC3CCCC3)CC2)=C(O)C1
·	·	-0.2%	1%	NC(=O)C1CC(=O)N(c2ccc(OCC(=O)Nc3ccccc3F)cc2)C1 (centres undefined)
0%	·	4.7%	18%	Cc1ccc(S(=O)(=O)N2CCN(C(=O)N3CCOCC3)CC2)c(C)c1
4%	-16	4.4%	-2%	CN(C)c1nc(NCc2ccccc2)nc(SCC(=O)Nc2ccccc2Cl)n1
29%	-4	-3.7%	16%	CC(NC(=O)Nc1cccc([N+](=O)[O-])c1)(C(F)(F)F)C(F)(F)F
·	·	7.0%	23%	Cc1nc2c(O)c3c(c(O)c2nc1C)C1C=CC3CC1
-4%	3	-3.4%	0%	COc1ccc(C(=O)COC(=O)CNS(=O)(=O)c2ccc(C)cc2)cc1
-12%	1	-0.4%	4%	CC(=O)Nc1ccc2c(c1)C(=O)N(c1ccc(C)cc1)C2=O
·	·	?	10%	CCCCN(C(=O)CSc1nc2ccccc2s1)c1c(N)n(CCCC)c(=O)[nH]c1=O
-2%	·	-3.7%	-3%	COc1ccc(C2C(C(=O)c3cccs3)=C(O)C(=O)N2CCN2CCOCC2)c(OC)c1 (centres undefined)
-6%	5	3.6%	-4%	N#Cc1ccccc1NC(=O)Nc1cccc(Cl)c1
-12%	-2	-0.6%	6%	COc1ccc(CNCCc2ccccc2)cc1OCC(N)=O
-47%	-13	-1.3%	-9%	Cc1cc(/C=N/NC(=O)c2ccccc2F)c(C)n1-c1ccccc1
-7%	-6	0.0%	0%	O=C(CNC(=O)c1ccccc1F)OCC(=O)N1CCCCC1
-4%	-2	-0.3%	-7%	CC(=O)Nc1cc(Cl)c(N=Cc2ccc(O)cc2O)cc1Cl
-76%	-7	-0.6%	-9%	C#Cc1cccc(NC(=O)c2ccc(Cl)cc2Cl)c1
-6%	10	-0.2%	-2%	COc1ccc(N2C(=O)C(CC(=O)Nc3ccc(Cl)cc3)N(NC(=O)c3cccc(F)c3)C2=S)cc1 (centres undefined)
6%	1	-1.4%	17%	CCOC(=O)C1=C(C)OC(N)=C(C#N)C1C1CCCCC1 (centres undefined)
11%	-8	?	-13%	Cc1ccc(NC(=O)CSc2ncnc3ccccc23)cc1S(=O)(=O)N1CCCCC1
-21%	-10	8.5%	3%	CCCc1cc(N2CCCC(C(=O)Nc3c(OC)cccc3OC)C2)n2ncnc2n1 (centres undefined)

Exported with values under each structure: part of the list above.
Order of values: miR-21 FLuc	GLA inh pH 4.5	Rango complex inh	Rango release inh
COc1ccc(C2C(C(=O)c3cccs3)=C(O)C(=O)N2CCN2CCOCC2)c(OC)c1 (centres undefined)
→ -2%	·	-3.7%	-3%
N#Cc1ccccc1NC(=O)Nc1cccc(Cl)c1
→ -6%	5	3.6%	-4%
COc1ccc(CNCCc2ccccc2)cc1OCC(N)=O
→ -12%	-2	-0.6%	6%
Cc1cc(/C=N/NC(=O)c2ccccc2F)c(C)n1-c1ccccc1
→ -47%	-13	-1.3%	-9%
O=C(CNC(=O)c1ccccc1F)OCC(=O)N1CCCCC1
→ -7%	-6	0.0%	0%
CC(=O)Nc1cc(Cl)c(N=Cc2ccc(O)cc2O)cc1Cl
→ -4%	-2	-0.3%	-7%
C#Cc1cccc(NC(=O)c2ccc(Cl)cc2Cl)c1
→ -76%	-7	-0.6%	-9%

More entries:
miR-21 FLuc	GLA inh pH 4.5	Rango complex inh	Rango release inh	mol
1%	2&-2	·	·	COC/C=C/C1=CC2=CC(=O)C(C)(OC(=O)c3ccco3)C(=O)C2=CO1 (centres undefined)
1%	7	-1.8%	1%	N#CCC(=O)N1CCN(C=O)CC1
·	-9	?	-17%	COc1ccc(-c2cc(=O)c3ccc(O)cc3o2)cc1
-8%	-4	-0.7%	7%	CCCCC(=O)Nc1cccc(NC(=O)CC)c1
4%	1	0.2%	?	O=C(NN(CC(O)COc1ccccc1)CC(O)COc1ccccc1)c1ccccc1 (centres undefined)
-3%	·	-3.0%	-7%	COc1ccc(CCN2CC(C(=O)NCc3nc(C)c(C)s3)CCC2=O)cc1 (centres undefined)
-2%	-7	?	-12%	CS(=O)(=O)CCC(C(=O)N1CCOCC1)N1C(=O)c2cc(Cl)c(Cl)cc2C1=O (centres undefined)
0%	4	-4.4%	-2%	COc1ccccc1-c1nc2n(n1)C(c1ccc(Cl)cc1)C(C(N)=O)=C(C)N2 (centres undefined)
-18%	2	6.5%	3%	Cc1ccc(NC(=O)C(=O)NN=C2CCCC2)cc1C
-5%	6	·	·	Cc1ccc(CNC(=O)c2cc3c(=O)n4cccc(C)c4nc3n(CC3CCCO3)c2=N)cc1 (centres undefined)
·	·	-4.0%	?	COc1ccc(-c2cc(=O)c3c(C)cc(O)cc3o2)cc1
·	·	0.4%	-6%	OCC(O)C1OCOC(C(O)CO)C1O (centres undefined)
4%	2	1.2%	5%	c1ccc2c(CSc3ncnc4nc[nH]c34)cccc2c1
1%	1	0.3%	5%	N/N=C1\CCCc2c1[nH]c1ccc([N+](=O)[O-])cc21
2%	5	2.3%	9%	CCCCN1C(=O)C(=O)NC[C@@H]1C(C)CC (some centres undefined)
·	·	-4.3%	-8%	O=C(CCNC(=O)c1ccccc1)NNC(=O)c1ccccc1Br
0%	·	7.8%	6%	COC(=O)c1cc(S(=O)(=O)NCc2cccc(OC)c2)cn1C
-6%	-4	-2.8%	8%	O=c1n(-c2ccccc2)c(=O)n2n1CCCC2
-6%	4	-1.6%	0%	COc1cccc(C(c2sc3nc(C)nn3c2O)N2CCc3ccccc3C2)c1 (centres undefined)
-13%	-2	-2.4%	-10%	COc1ccc(/C=C/C(=O)NNc2c(F)c(F)cc(F)c2F)cc1OC
1%	·	3.4%	27%	O=C(O)c1ccccc1-c1ccccc1C(=O)NCc1ccccc1F
-5%	·	3.0%	3%	CCCCN(C(=O)c1cc(CC)c(C)s1)c1c(N)n(CC(C)C)c(=O)[nH]c1=O
1%	-1	-0.7%	-2%	O=C(CCN1C(=O)c2ccncc2C1=O)Nc1cc(F)ccc1F
-4%	-5	0.4%	26%	COc1ccc(CCNC(=O)C/C(C)=N/NC(=O)Cc2cccc3ccccc23)cc1OC
-1%	-5	4.0%	-7%	COc1ccccc1N(C)S(=O)(=O)c1ccc(C(=O)NCC(C)C)cc1
4%	·	6.8%	-13%	COCCC(=O)N1CCC(Oc2ccc(C(=O)NCCCC3CCCC3)cc2)CC1
1%	·	-1.4%	1%	Cc1ncc(CN2CCCC(C(=O)Nc3ccc(-c4cccc(F)c4)cc3)C2)n1C (centres undefined)
-13%	·	1.8%	-10%	Nc1nc2ccc(C(=O)N3CCCCC3)cc2s1
·	·	-1.5%	-2%	CC(C)(C)OC(=O)N[C@@H](C(=O)OC(C)(C)C)c1ccc2ccccc2c1
-5%	6	-0.1%	-14%	COCC(=O)N(Cc1ccco1)c1nnc(C2CCOC2)s1 (centres undefined)

Source: PubChem (National Center for Advancing Translational Sciences (NCATS))
